# Source: PubChem BioAssay
# NPYLR7 agonist: activates Aedes aegypti NPYLR7 receptor; HEK293T NPYLR7/Galpha15, GCaMP6s calcium fluorescence; activation, % at 10 µM; actives 0.15% (n = 270,000); AID 1259423; in the data active = activation above about 40%;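 note: 0% = vehicle and 100% = reference agonist at the receptor; some compounds past the cut are filed as inactive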
# NPYLR7 agonist max-min: recorded beside NPYLR7 agonist, whose call it bears; activation, %; measured here: Max-Min RFU normalised activation; some inactives read as strong as hits;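 span of the calcium signal over five minutes; 0% = vehicle and 100% = native peptide agonist; compound fluorescence can raise it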
# * hit, by the source's call; & = joins results of further samples.
# Values run as follows: NPYLR7 agonist | NPYLR7 agonist max-min
COCCN(CC(=O)N(CCc1c[nH]c2ccccc12)Cc1ccc(F)cc1)C(=O)CC(C)C
→ 7 | 9
Cn1ccnc1SCc1cc(=O)c(OC(=O)c2ccc(S(=O)(=O)N3CCCCC3)cc2)co1
→ -3 | -6
CNC(=O)CCNS(=O)(=O)c1ccc(F)cc1
→ 1 | 2
CN1CCN(Cn2nc(-c3ccc4c(c3)OCO4)oc2=S)CC1
→ 1 | -1
CC(c1cccc(-c2cc(=O)[nH]c(N)n2)c1)N(C)C (stereo not drawn)
→ 8 | 3
O=C(c1csc(CSc2nnc(-c3cccnc3)n2-c2ccccc2)n1)N1CCc2ccccc2C1
→ 3 | 7
COc1ccc(CCN(C(=O)CCC(=O)O)C2CC(=O)N(c3ccccc3)C2=O)cc1 (stereo not drawn)
→ -1 | -3
O=C(CSc1nc2c(c(=O)n1-c1ccc(F)cc1)SCC2)NCCc1ccccc1
→ 0 | 46
CN(C(=O)c1ccc(S(=O)(=O)C(F)(F)F)cc1)C1C2CC3CC(C2)CC1C3 (stereo not drawn)
→ 2 | 0
N#Cc1ccsc1NC(=O)C1=NN(Cc2ccc(F)cc2)C(=O)CC1
→ 0 | -2
COc1ccc2c(c1)CCCN2CC(=O)NCc1ccc(S(N)(=O)=O)cc1
→ 9 | 6
Cc1ccc(Cn2nnc3c(=O)n(CC(=O)c4ccccc4)cnc32)cc1
→ 7 | 10
O=C(N1CCc2ccc(S(=O)(=O)NCCN3CCCCCC3)cc2C1)C(F)(F)F
→ -6 | -15
COCCCn1ccc2nc3ncnn3c(-c3ccccc3)c2c1=O
→ 3 | 8
CC(C)CNC(=O)C1(C)CCCCCN1C(=O)c1cc(C#N)cs1 (stereo not drawn)
→ 4 | 1
Cc1ccccc1NC(=O)N1C[C@@H](O)[C@H](NCCc2ncccc2C)C1
→ 13 | 7
C=CCNC(=O)COC(=O)c1c(-c2cccs2)csc1NC(C)=O
→ 0 | -2
COc1ccc(-c2cnoc2-c2ccc(O)cc2O)cc1
→ 6 | 2
COc1cccc(C2NC(=O)NC(C)=C2C(=O)Nc2ccccc2Cl)c1 (stereo not drawn)
→ 1 | 2
COc1ccc(Nc2nc(Cl)nc(NC3CCCC3)n2)cc1
→ -4 | -6
CNC(=O)c1ccc(NC(=O)N2CCc3sccc3C2)cc1Cl
→ 7 | 3
COc1cccc(-c2cc(CNC(=O)c3ccc(S(=O)(=O)N(C)C)cc3)no2)c1
→ 2 | 0
CCOc1ccccc1CN1C(=O)C2(SC(NC(C)=O)=NN2C(C)=O)c2ccccc21 (stereo not drawn)
→ 0 | 7
CCOC(=O)c1ccc2c(c1)nc(SCc1ccccc1C#N)n2Cc1cccc(F)c1
→ -7 | -12
CN(Cc1cccnc1)Cc1nc2ccccc2c(=O)[nH]1
→ 1 | 2
CCN1CCN(C(c2cccc(OC)c2)C2Sc3nc(C)nn3C2=O)CC1 (stereo not drawn)
→ 12 | 10
CN(Cc1cccc(Cl)c1)C(=O)c1cc(CN2CCCC(O)C2)on1 (stereo not drawn)
→ 4 | 2
O=C(NCc1cn2ccccc2n1)c1cc2c([nH]c1=O)CCCC2
→ 4 | -7
COc1cc2c(cc1OC)C(CNC(=O)Nc1ccc(C)cc1)N(Cc1ccccc1F)CC2 (stereo not drawn)
→ 4 | 4
Cn1c(Cn2c(=O)sc3ccccc32)nnc1SCc1ccc(Br)cc1
→ 7 | 7
COc1cc(Cl)ccc1OCc1cc(C(=O)NCCCSC)no1
→ -3 | -2
Cc1csc(SCc2cc(=O)c(OC(=O)c3cccc(Br)c3)co2)n1
→ -5 | -8
CCc1ccc(C(=O)N(Cc2ccco2)C2CCS(=O)(=O)C2)cc1 (stereo not drawn)
→ 14 | 8
COc1cc(-c2ccc(=O)n(CC(=O)Nc3cccc(C)c3)n2)cc(OC)c1OC
→ 7 | 4
Cc1ccc(OCC2CN(C(=O)c3cnc(C)cn3)CCO2)cc1 (stereo not drawn)
→ 11 | 7
CCOc1ccccc1CNC(=O)c1c(C)noc1-c1ccc(C(C)(C)C)cc1
→ -3 | 3
CC1CN(C(=O)c2cnn(-c3ccc(Cl)cc3)c2)C(C)CO1 (stereo not drawn)
→ 4 | 0
O=C(Nc1ccc(-c2nc3ccccc3o2)cc1)c1cccs1
→ -4&-4 | 7&-5
Cc1csc(C2(NC(=O)CCc3ccsc3)CCCC2)n1
→ 10 | 5
CC1CN(C(=O)c2cc3c(=O)n4ccccc4nc3s2)CC(C)O1 (stereo not drawn)
→ -4 | -2

# (next part)
Compound,NPYLR7 agonist,NPYLR7 agonist max-min
Cc1cccnc1-c1ccc2c(c1)CC(CNC(=O)c1ccccc1)O2 (stereo not drawn),28,24
Cc1ccc(F)c(NC2CCCN(C(=O)c3ccc([N+](=O)[O-])cc3)C2)c1 (stereo not drawn),5,14
Cc1cc(C(=O)N(Cc2ccco2)c2nc3c(F)cccc3s2)nn1C,10,5
CCCC(NC(=O)CCc1nnc(-c2ccc(-c3ccccc3)cc2)o1)c1ccccc1 (stereo not drawn),-7,-11
CC(C)(C)c1nnc2sc(SCC(O)=C(C#N)c3nc4ccccc4[nH]3)nn2c1=O,-1,-3
COCCN1CCC(Cn2ccnc2-c2ccc(NC(C)=O)cc2)C1 (stereo not drawn),-4,15
O=C(CN1CCc2sccc2C1c1cccc(F)c1)N1CCN(C(=O)c2cc(C(F)(F)F)cc(C(F)(F)F)c2)CC1 (stereo not drawn),-5,-10
COc1cc2c(cc1-c1cccnc1)OCC(C)(C)CC2CO (stereo not drawn),2,6
CC(C)CCn1c(CN2CC(C)CC(C)C2)nc2c1c(=O)n(C)c(=O)n2C (stereo not drawn),0,19
CCCCn1nc(C(=O)N2CCN(c3ccc(C#N)cn3)CC2)ccc1=O,4,2
CCc1ccccc1NC(=O)CCc1c(C)nn(-c2nc(C)cc(=O)[nH]2)c1C,12,3
CCc1nc2ccc(C(=O)NCc3ccc(OC)cc3)cn2c1N(CC)CC(=O)N(C)C,2,32
COCCN(CC(=O)N(CCc1ccccc1)Cc1ccc(C)o1)C(=O)Nc1cccc(Cl)c1,1,11
O=C(N=c1sccn1Cc1ccc(C(=O)O)o1)c1cccc(C(F)(F)F)c1,10,5
CCOC(=O)c1[nH]c2ccccc2c1NC(=O)/C=C/c1cc(OC)c(OC)c(OC)c1,1,11
CN1CCOc2ccc(NS(=O)(=O)c3cccc4ccccc34)cc2C1=O,5,0
Cc1ccc(OCc2cc(C(=O)N(C)Cc3csc(-c4ccccc4)n3)no2)cn1,3&-3,-3&-4
CCOC(=O)C1=CN(c2ccc(OCC)cc2)C=C(C(=O)OCC)C1c1ccc(C(F)(F)F)cc1,2,4
Cc1nn(CC(C)C)c(Cl)c1/C=C/C(=O)O,-8,-9
Cc1nc(C)c(C(=O)N2C[C@H]3OC(=O)N(Cc4ccccn4)[C@H]3C2)s1,7,4

# The closing 2 compounds of the part before come first, to join the parts:
Compound,NPYLR7 agonist,NPYLR7 agonist max-min
Cc1nn(CC(C)C)c(Cl)c1/C=C/C(=O)O,-8,-9
Cc1nc(C)c(C(=O)N2C[C@H]3OC(=O)N(Cc4ccccn4)[C@H]3C2)s1,7,4
CN1CCN(c2nc(C3=C(c4c[nH]c5ccccc45)C(=O)NC3=O)c3ccccc3n2)CC1,-1,-7
CCOc1ccc(-c2nc(CN3N=NC4C(=O)N(c5ccc(C)c(Cl)c5)C(=O)C43)c(C)o2)cc1 (stereo not drawn),6,-3
Cc1cc(C(O)c2ncc(-c3ccc(Cl)cc3)[nH]2)ccc1F (stereo not drawn),2,1
O=C(CC1(O)C(=O)Nc2ccccc21)c1ccccc1 (stereo not drawn),4,5
CCOC(=O)C1CCN(C(c2cccc(F)c2)C2Sc3nc(C)nn3C2=O)CC1 (stereo not drawn),-2,-5
CC(C)c1cccc(C(C)C)c1-n1c(COc2ccccc2)n[nH]c1=S,3,-2
COc1ccc(N2C(=O)CSC2c2ccccc2C(F)(F)F)cc1 (stereo not drawn),15,14
c1cnn(CC2(CNC3CCN(c4ccc5c(c4)OCO5)CC3)CC2)c1,-3,-2
CCC(=O)NCC(=O)OCc1csc(-c2ccccc2Cl)n1,-1,-2
CCCn1nc(C)cc1NC(=O)c1cccc(CN2CCC(=O)NCC2C)c1 (stereo not drawn),0,0
CC(C)(NC(=O)c1cccs1)C(=O)NCc1cccnc1-n1ccnc1,0,0
Cc1cccc(C2CC2C(C)NC(=O)C2CC(=O)N(C)C2)c1 (stereo not drawn),1,0
CCCCc1ccc(C(=O)N(CCCOCC)CC(=O)N(Cc2ccccc2)Cc2ccc(C)s2)cc1,4,12
COCCCCNc1ccc(-c2nc(C)cc(=O)[nH]2)cn1,2,-10
CCCC(=O)N1CCCC1(C)C(=O)NCc1ccc(F)cc1Cl (stereo not drawn),5,1
CC(=O)CCCCCC(=O)NCCCOc1cccc([N+](=O)[O-])c1,-1,-6
CCN(CC)CC(O)COc1ccc(CNCCc2c(C)n[nH]c2C)cc1OC (stereo not drawn),0,-1
CN1CCc2cc(C(CNC(=O)Nc3cccs3)N3CCOCC3)ccc21 (stereo not drawn),-8,-9
NC(=O)CSc1nnc(-c2ccc(Cl)cc2)n1CC1CCCO1 (stereo not drawn),5,6
CCCCCc1ccc(C(=O)NC(C)c2nnc(SCc3cccc(OC)c3)n2-c2cc(Cl)ccc2Cl)cc1 (stereo not drawn),-2,7
Cn1ncc(C(=O)N2CCN(Cc3cc(=O)c(OCc4ccccc4Cl)co3)CC2)c1Cl,15,18
O=C(NC(Cc1ccccc1)c1ccccc1)C1CCCN1c1nc(Cc2ccc(Cl)cc2)ns1 (stereo not drawn),6,15
COc1ccc(-c2noc(Cn3nc(C)c(C)c3C)n2)c(OC)c1OC,6,5
Cc1nc2cc(Cl)c(Cl)cc2nc1C,6,6
COC(=O)c1ccc(CN2C(=O)C(C)ON=C2c2ncccc2C)o1 (stereo not drawn),4,3
Cc1cc(C)c2c(CC(=O)N3CCCC(O)(CO)CC3)coc2c1C (stereo not drawn),9,3
Cc1ccc(N(CC(=O)NC(c2ccccc2)c2ccccc2)S(=O)(=O)N2CCCC2)cc1,-10,-14
C[C@]1(CO)[C@H]2Cc3sc(NC(=O)c4ccnc(Cl)c4)nc3[C@@H](CC(=O)NC3CCCC3)[C@]2(C)CC[C@H]1O,-12,-16
COc1cccc(CSc2nnc(CNC(=O)Nc3c(C(C)C)cccc3C(C)C)n2-c2ccc(Cl)cc2Cl)c1,14,14
CC(c1cccnc1)N(C)C(=O)c1ccc(Cl)c(Cl)c1O (stereo not drawn),-1,-1

# Reformatted as labelled records: part of the list above.
Structure: CC(C)(NC(=O)c1cccs1)C(=O)NCc1cccnc1-n1ccnc1
  NPYLR7 agonist: 0	NPYLR7 agonist max-min: 0
Structure: CC1CN(C(=O)c2cc3c(=O)n4ccccc4nc3s2)CC(C)O1 (stereo not drawn)
  NPYLR7 agonist: -4	NPYLR7 agonist max-min: -2
Structure: COc1ccc2c(c1)CCCN2CC(=O)NCc1ccc(S(N)(=O)=O)cc1
  NPYLR7 agonist: 9	NPYLR7 agonist max-min: 6
Structure: CC(c1cccc(-c2cc(=O)[nH]c(N)n2)c1)N(C)C (stereo not drawn)
  NPYLR7 agonist: 8	NPYLR7 agonist max-min: 3

# Remaining list, next part.
Compound,NPYLR7 agonist,NPYLR7 agonist max-min
CCc1ccc(S(=O)(=O)Nc2cccc(-c3csc4nc(C)c(C)c(=O)n34)c2)s1,-5,-6
O=C(Nc1cccc(F)c1)N1CCC2(CC1)SCCN2C(=O)COc1ccccc1,-7,2
O=C(CN1CCC(=O)N(C2CC2)Cc2cc(F)ccc21)c1ccc(N2CCCC2)cc1,8,21
COc1cccc(N=CC(C#N)c2nc3ccccc3s2)c1 (stereo not drawn),-1,0
COCCCN(Cc1ccc(OC)c(OC)c1)Cc1ccc(C(O)(c2cccc(F)c2)c2cccc(F)c2)o1,3,-1
CCCc1ccc(C(=O)Nc2cc(C(N)=O)ccc2F)cc1,-5,-6
COc1cc2c(cc1O)C(c1cnn(-c3ccc(C)c(C)c3)c1)CC(=O)N2 (stereo not drawn),9,-5
O=C(COC(=O)c1cc2c(s1)CCC2)c1ccc(Br)s1,-1,15
CCn1c(SCC(=O)Nc2cc(C)ccc2OC)nc2c(-c3ccccc3)c[nH]c2c1=O,-4,-5
COCCCC1CCN(Cc2nc(-c3ccccn3)no2)CC1,-6,-7

# Next part; the last four above are carried over.
Compound,NPYLR7 agonist,NPYLR7 agonist max-min
COc1cc2c(cc1O)C(c1cnn(-c3ccc(C)c(C)c3)c1)CC(=O)N2 (stereo not drawn),9,-5
O=C(COC(=O)c1cc2c(s1)CCC2)c1ccc(Br)s1,-1,15
CCn1c(SCC(=O)Nc2cc(C)ccc2OC)nc2c(-c3ccccc3)c[nH]c2c1=O,-4,-5
COCCCC1CCN(Cc2nc(-c3ccccn3)no2)CC1,-6,-7
Cc1ccc(CN2CCCN(c3ccccc3)CC2)o1,0,-8
Nc1ccc(C(=O)Oc2ccccc2)c(O)c1,-8,-14
CC(C)(C)CC(=O)N1CC(=O)N(CCOc2ccccc2)CC(O)C1 (stereo not drawn),2,8
CC(C)CNc1ccc(S(=O)(=O)N2CCOCC2)cc1NC(=O)C1CCCCC1,-6,-8
O=C(CN1CCN(Cc2nc3sccn3c2Br)CC1)N1CCCCC1,-9,-11
CCn1cc(-c2c(-c3ccccc3)ncn2C(C)Cc2cnccn2)c(C)n1 (stereo not drawn),2,-2
Cc1noc(C)c1S(=O)(=O)N1CCN(Cc2cccc(C(F)(F)F)c2)CC1,-6,-6
Cc1cccc(Cn2c(=O)c(C(=O)NCc3ccccn3)nn(-c3cccc(F)c3)c2=O)c1,-3,4
COCCNC(=O)c1cn(CC2CCCO2)cc2c(=O)n(-c3ccccc3)nc1-2 (stereo not drawn),4,3
Cc1cc(C)n(-c2ccc(CCNC(=O)C3CC3)cc2)n1,8,4
CCCc1c(C(=O)N2CCCC(C(=O)OCC)C2)cnn1Cc1ccccc1 (stereo not drawn),10,20
O=C1C2C3C=CC(C3)C2C(=O)N1Cc1ccoc1 (stereo not drawn),2,4
COc1ccc(/C=C/CN2CCN(c3nccc4ccccc34)CC2)cc1,11,-2

# Only part of the results is shown; count on the stated rates, not on these rows.
